KCNQ2 block: KCNQ2 channel blockers in CHO-K1 cells – cell-based, FluxOR thallium flux, B-score, primary screen (AID 2156). B-score at 10 µM. O88943. 20 min; active compounds read low; only compounds with negative scores are shown here; some inactives read as strong as hits. hit rate 1.1% among 310,000;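 active = fluorescence ratio B-score at most minus 3 library SDs, with starting brightness B-score within 2 library SDs, cut at about -5.5 in these data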
Target sequence (O88943 whole entry, looked up): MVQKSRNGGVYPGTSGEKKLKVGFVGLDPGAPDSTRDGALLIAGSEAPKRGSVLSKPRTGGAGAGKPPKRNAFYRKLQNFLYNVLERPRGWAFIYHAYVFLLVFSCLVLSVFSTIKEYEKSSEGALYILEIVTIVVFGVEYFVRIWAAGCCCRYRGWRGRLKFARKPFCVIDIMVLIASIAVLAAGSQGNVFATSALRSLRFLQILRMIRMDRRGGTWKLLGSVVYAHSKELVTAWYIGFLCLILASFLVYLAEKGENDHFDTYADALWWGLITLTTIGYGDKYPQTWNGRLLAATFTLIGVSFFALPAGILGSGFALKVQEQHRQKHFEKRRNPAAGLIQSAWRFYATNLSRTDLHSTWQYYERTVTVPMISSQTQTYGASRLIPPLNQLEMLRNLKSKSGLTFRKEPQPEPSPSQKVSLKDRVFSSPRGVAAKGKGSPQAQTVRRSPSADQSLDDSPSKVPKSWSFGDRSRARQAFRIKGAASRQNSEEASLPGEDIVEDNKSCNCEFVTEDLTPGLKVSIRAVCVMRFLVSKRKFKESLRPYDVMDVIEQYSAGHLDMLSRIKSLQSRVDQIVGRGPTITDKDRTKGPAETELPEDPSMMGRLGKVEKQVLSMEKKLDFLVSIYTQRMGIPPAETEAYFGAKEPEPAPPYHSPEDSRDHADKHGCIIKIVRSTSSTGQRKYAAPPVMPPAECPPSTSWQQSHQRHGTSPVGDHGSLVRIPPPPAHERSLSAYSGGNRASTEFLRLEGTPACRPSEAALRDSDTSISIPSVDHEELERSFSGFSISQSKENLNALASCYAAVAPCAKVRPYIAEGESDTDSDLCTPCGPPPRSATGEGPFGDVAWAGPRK
KCNQ2 block baseline: further read-out of KCNQ2 block, marked with its call; B-score; measured here: initial fluorescence intensity artifact check;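 brightness before thallium and not channel activity; 0 = typical well and far values either way flag optical interference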
An asterisk follows results filed as active; i = inactive.

Start of the listing, in advance (2 entries):
KCNQ2 block,KCNQ2 block baseline,Molecule
i,-0.83,Cc1cc(NC(=O)c2ccc(NC(=O)C3CCCO3)cc2)ccc1Br (stereo unspecified)
i,-0.21,Cc1ccc(CN2CCSc3sccc3C2=O)cc1

Main list, repeating the preview:
KCNQ2 block,KCNQ2 block baseline,Molecule
i,-0.83,Cc1cc(NC(=O)c2ccc(NC(=O)C3CCCO3)cc2)ccc1Br (stereo unspecified)
i,-0.21,Cc1ccc(CN2CCSc3sccc3C2=O)cc1
i,0.12,CCN(c1ccccc1)S(=O)(=O)c1cc(NC(=O)CSc2n[nH]c(=O)[nH]c2=O)ccc1Cl
i,-0.47,O=C(c1cc(-c2ccccc2)nc2ccccc12)N1N=C(C(F)F)CC1(O)C(F)F (stereo unspecified)
i,0.72,CN(C)/C=C1\Oc2ccc3ccccc3c2C1=O
i,0.03,COc1ccccc1CNC(=O)C(NS(=O)(=O)c1cccc2nsnc12)C(C)C (stereo unspecified)
i,0.36,CCOC(=O)C1CCN(S(=O)(=O)c2ccc(OCC)cc2)CC1
i,-1.05,COc1ccc(C(=O)Nc2ccccc2C(=O)N2CCN(c3ccccc3)CC2)cc1
i,-0.12,Cc1ccc(NC(=O)c2sc(N)nc2-c2ccccc2)cc1C
i,1.98,CCCCCCc1cc2cc(C(=O)Nc3ccccc3OC)c(=O)oc2cc1O
i,-0.98,C#CCOc1ccccc1CNc1ccccc1
-5.67*,-0.25*,COc1ccc(C2NC(C(=O)O)Cc3c2[nH]c2ccccc32)cc1CN1CCN(c2ccc(F)cc2)CC1 (stereo unspecified)
i,-0.24,N/C(=N\N=C/c1ccc(F)cc1)N/N=C\c1ccc(F)cc1
i,0.92,Cc1c(O)c(CN2CCCCC2)cc2c3c(c(=O)oc12)CCC3
i,-0.29,COc1ccc(C2NC(=O)CCC2[N+](=O)[O-])c(OC)c1 (stereo unspecified)
i,-0.09,COc1ccccc1NC(=O)COC(=O)c1ccc([N+](=O)[O-])s1
i,-0.1,CCCNC(=O)C/C(C)=N/NC(=O)C(=O)Nc1ccccn1
i,-0.94,COc1ccccc1CNC(=O)C(=O)NCC1OCCN1S(=O)(=O)c1ccccc1 (stereo unspecified)
i,-0.39,Cc1ccc(C(=O)OCC(=O)Nc2ccccc2Cl)c(O)c1
i,0.47,O=[N+]([O-])c1ccc(N2CCN(c3ccc(F)cc3)CC2)cn1
i,-2.82,Cc1ccc(C)c(N2CCN(C(=O)Cn3c(=O)oc4cc(S(=O)(=O)N5CCCC5)ccc43)CC2)c1
i,-0.36,O=C(NNC(=O)c1cccs1)c1ccc(S(=O)(=O)N2CCCCC2)cc1
i,0.62,N[C@@H](Cc1ccccc1)c1nnc(SCc2ccccc2Cl)o1
i,-0.02,Cc1cnc(NC(=O)c2ccccn2)s1
i,1.62,O=C(/C=C/c1ccc(Cl)cc1Cl)c1cccnc1

For convenience, part of the list above.
KCNQ2 block,KCNQ2 block baseline,Molecule
i,0.72,CN(C)/C=C1\Oc2ccc3ccccc3c2C1=O
i,0.03,COc1ccccc1CNC(=O)C(NS(=O)(=O)c1cccc2nsnc12)C(C)C (stereo unspecified)
i,0.36,CCOC(=O)C1CCN(S(=O)(=O)c2ccc(OCC)cc2)CC1
i,-1.05,COc1ccc(C(=O)Nc2ccccc2C(=O)N2CCN(c3ccccc3)CC2)cc1
i,-0.12,Cc1ccc(NC(=O)c2sc(N)nc2-c2ccccc2)cc1C
i,1.98,CCCCCCc1cc2cc(C(=O)Nc3ccccc3OC)c(=O)oc2cc1O
i,-0.98,C#CCOc1ccccc1CNc1ccccc1
-5.67*,-0.25*,COc1ccc(C2NC(C(=O)O)Cc3c2[nH]c2ccccc32)cc1CN1CCN(c2ccc(F)cc2)CC1 (stereo unspecified)
i,-0.24,N/C(=N\N=C/c1ccc(F)cc1)N/N=C\c1ccc(F)cc1
i,0.92,Cc1c(O)c(CN2CCCCC2)cc2c3c(c(=O)oc12)CCC3
i,-0.29,COc1ccc(C2NC(=O)CCC2[N+](=O)[O-])c(OC)c1 (stereo unspecified)
i,-0.09,COc1ccccc1NC(=O)COC(=O)c1ccc([N+](=O)[O-])s1
i,-0.1,CCCNC(=O)C/C(C)=N/NC(=O)C(=O)Nc1ccccn1
i,-0.94,COc1ccccc1CNC(=O)C(=O)NCC1OCCN1S(=O)(=O)c1ccccc1 (stereo unspecified)
i,-0.39,Cc1ccc(C(=O)OCC(=O)Nc2ccccc2Cl)c(O)c1
i,0.47,O=[N+]([O-])c1ccc(N2CCN(c3ccc(F)cc3)CC2)cn1
i,-2.82,Cc1ccc(C)c(N2CCN(C(=O)Cn3c(=O)oc4cc(S(=O)(=O)N5CCCC5)ccc43)CC2)c1

(further entries)
KCNQ2 block,KCNQ2 block baseline,Molecule
i,0.01,CC(=O)Nc1ccc(C(=O)NNC(=O)Cc2ccccc2)cc1
i,2.44,Cc1ccc(C(=O)N/C(=C\c2cccc([N+](=O)[O-])c2)C(=O)NCc2ccncc2)cc1
i,1.63,O=S(=O)(Cc1ccccc1)Nc1ccccc1
i,0.6,O=C(O)COc1ccccc1/C=N/NC(=O)c1cccc(S(=O)(=O)N2CCOCC2)c1
i,0.39,O=C(Cc1cccs1)N(Cc1ccco1)C1(C(=O)NC2CCCCC2)CCCCC1
i,0.59,COc1ccc(C)cc1NC(=O)C(C)N1CCOCC1 (stereo unspecified)
i,0.52,CCCCCOC(=O)C(C)c1c(C)[nH]c(=S)[nH]c1=O (stereo unspecified)
i,72.3,CCOc1ccc2noc3c2c1C(=O)c1ccccc1-3
i,-1.38,CCOP(=O)(OCC)C(NCc1ccccc1)c1ccc(Br)cc1 (stereo unspecified)
i,1.85,COC(=O)c1cc(OC)c(OC)cc1NC(=O)Nc1ccccc1F
i,-0.23,CC1(C)CC(=O)C(C=NCCN2CCN(C(=S)Nc3cccc(Cl)c3)CC2)=C(O)C1
i,0.13,CC(=NCCCn1ccnc1)c1c(C)[nH]n(-c2ccc([N+](=O)[O-])cc2)c1=O
i,0.57,COc1ccccc1OCC(=O)Nc1ccc(O)cc1C(=O)O
i,2.06,CC12CC3(C)CC(C)(C1)CC(C(=O)Nc1nn[nH]n1)(C2)C3
i,1.47,CCCn1c(SCC(=O)NC2CCCC(C)C2C)n[nH]c1=O (stereo unspecified)
i,0.17,COCC(=O)N1CCC(Oc2ccc(C(=O)N3CCCCC3COC)cc2)CC1 (stereo unspecified)
i,0.35,CC(C)C(C(=O)NCc1ccco1)N(C(=O)CNS(=O)(=O)c1ccccc1)c1ccccc1 (stereo unspecified)
i,0.03,CCOC(=O)C(NC(=O)CCC(=O)Nc1ccc(S(N)(=O)=O)cc1)C(O)c1ccccc1 (stereo unspecified)
i,-1.27,O=C(CCC1CCCN(C(=O)Cn2cnnn2)C1)NCc1ccccc1F (stereo unspecified)
i,1.14,O=[N+]([O-])c1cc2c(cc1/C=N/Nc1nc(Nc3ccccc3)nc(N3CCCCC3)n1)OCO2
i,0.61,COC(=O)C1=CN(c2cc(C)cc(C)c2)C=C(C(=O)OC)C1c1cccc(F)c1
i,-0.33,COC(=O)c1c(-c2ccc(OC)cc2)oc2ccc(-c3ccc(OC)nc3)cc12
i,-0.5,Cc1ccccc1-n1c(SCC(=O)N2CCCCC2)nc(O)cc1=O
i,-1.12,CCN(CC)S(=O)(=O)c1ccc(NC(=S)NC(=O)CC(C)C)cc1
i,0.38,COc1ccc(S(=O)(=O)NC2CCCCCC2)c(OC)c1
i,-0.11,O=C(OCc1ccccc1Cl)c1cccnc1Cl
i,0.21,CC(=O)Nc1ccc(Oc2ccc([N+](=O)[O-])cc2Cl)cc1
i,0.03,COc1ccc(NS(=O)(=O)c2cccc(NC(=O)COc3ccc(OC)cc3)c2)cc1
i,1.35,CCNC(=S)NNC(=O)C1CCN(Cc2ccccc2)CC1
i,2.96,Cc1ccc(C)c2nc3sc(C(=O)N4CCOCC4)c(N)c3cc12
i,-1.77,O=C1NC(=O)/C(=C\c2ccc(Oc3ccc([N+](=O)[O-])cn3)cc2)S1
i,-0.19,CC(C)CC(C(=O)NCC1CCCO1)N(C(=O)Cn1nnc(-c2ccc(F)cc2)n1)c1cccc(C(F)(F)F)c1 (stereo unspecified)
i,0.67,COc1ccc(-c2cc3c(=O)n(CC(=O)Nc4ccc(Cl)cc4)nc(C)n3n2)cc1
i,0.81,COC(=O)c1ccc(C(=O)OC)c(NC(=O)CSCc2ccc(Br)cc2)c1
i,-2.88,O=C(c1cc(COc2cccc(C(F)(F)F)c2)on1)N1CCC(c2ccncc2)CC1
i,-1.26,O=C(COC(=O)Cn1cnc2ccccc2c1=O)Nc1ccc(Cl)c(C(F)(F)F)c1
i,0.07,CC(=O)c1cccc(NC(=O)C2C(c3ccccc3)C2(Cl)Cl)c1 (stereo unspecified)
i,0.12,CCOc1ccc(C(=O)N[C@H](C(=O)O)C(C)C)cc1
i,-0.12,COCC1CCN(C(=O)C2CCC(=O)N(CCc3cccc(F)c3)C2)CC1 (stereo unspecified)
i,0.55,O=C1OC(c2ccc3c(c2)OCO3)=N/C1=C\c1ccc(C(=O)O)cc1
i,0.53,CCOC(=O)N1CCN(C(=O)CSCc2ccc(Br)cc2)CC1
i,-0.62,CN(C)CCCN(C(=O)c1ccc(C(=O)c2ccccc2)cc1)c1nc2c(F)cccc2s1
i,0.52,O=C(NCC(c1ccco1)N1CCN(c2ccc(F)cc2)CC1)C(=O)NC1CCCC1 (stereo unspecified)
i,0.28,CS(=O)(=O)N(CC(=O)O)c1cccc(Cl)c1
i,-0.92,Fc1ccc(C2=Nn3c(nnc3-c3n[nH]c4c3CCC4)SC2)cc1
i,-0.08,Cc1ccc([N+](=O)[O-])cc1-c1[nH]c(-c2ccc(O)c(O)c2)nc1-c1ccccc1
-5.57*,0.93*,Cc1cc(C)c(S(=O)(=O)N(C)CC(N)=O)c(C)c1
i,0.33,CCOC(=O)C1C(=O)NCC1c1ccccc1 (stereo unspecified)
i,0.55,CC1CCC2(CC1)NC(=O)N(CC(=O)Nc1ccc3c(c1)CCC3)C2=O (stereo unspecified)
i,-2.45,Cc1cc(=O)c2cccc(Br)c2[nH]1

Next compounds follow.
KCNQ2 block,KCNQ2 block baseline,Molecule
i,0.54,CC(=O)c1cc(C#N)c(Oc2ccc(F)cc2)nc1C
i,1.56,Cn1c(=O)c(Oc2ccc(Cl)cc2)c(O)c2ccccc21
i,-1.51,COc1ccc(O)c(C(=O)/C=C/c2cc3ccccc3o2)c1
i,1.38,COc1ccc(C(=O)OC(COc2ccccc2)Cn2ccnc2)cc1 (stereo unspecified)
i,3.28,CC(=O)Nc1cccc(C(=O)/C=C/c2ccc(N(C)C)cc2)c1
i,1.54,O=C1C=C(c2ccccc2)C(=O)N1Nc1ccccc1
i,-0.24,O=C(Nc1ccccc1N1CCOCC1)C1Cc2ccccc2CN1C(=O)c1ccco1 (stereo unspecified)
i,0.27,O=C(CCCN1C(=O)/C(=C/c2cccc(Br)c2)SC1=S)Nc1ccccn1
i,0.13,CS(=O)(=O)c1ncc(CO)n1Cc1ccccc1
i,0.12,CCOC(=O)c1nnn(-c2nonc2-n2cccc2)c1-c1cccc([N+](=O)[O-])c1
i,0.9,Cc1cc(NC(=O)CSc2nnnn2-c2ccc(C)c(Cl)c2)no1
i,-1.65,COc1ccc(NC(C)C(=O)N/N=C/c2ccc([N+](=O)[O-])s2)cc1 (stereo unspecified)
i,-1.96,COc1ccccc1OCc1nc(-c2cccc([N+](=O)[O-])c2)no1
i,0.41,CN1C(=O)[C@@H]2[C@@H]3C[C@@H]([C@H]4ON=C(c5ccc(Cl)cc5)[C@@H]34)[C@@H]2C1=O
i,-0.36,COc1ccccc1N1CCN(c2ccc3ccccc3n2)CC1
i,-0.99,Oc1ccc(N=Nc2n[nH]c(-c3ccc(Br)cc3)n2)cc1
i,0.02,CC(C)Cn1c(NCCN(C)C)nc2c1c(=O)[nH]c(=O)n2C
i,-0.38,CCc1cc2cccc(C)c2nc1SCC(=O)Nc1nonc1C
i,0.06,C/C(=N\O)c1cccc(Br)c1
i,0.05,COc1cccc(/C=N/NC(=O)c2ccc3nc[nH]c3c2)c1
i,-1.22,CCC(c1nnc(SCC(=O)Nc2nnc(-c3ccccc3)o2)o1)N(C)C (stereo unspecified)
i,1.26,Cc1cccc(C)c1NC(=O)CN1C(=O)COc2ccccc21
i,0.09,CO/N=C/C(C(C)=O)C(=O)Nc1ccc(Cl)cc1Cl (stereo unspecified)
i,1.83,CN(c1ccc(C(=O)NCCCn2ccnc2)cc1)S(C)(=O)=O
i,1.37,CCc1n[nH]c2c1/C(=N\O)CC(c1ccccc1)C2 (stereo unspecified)
i,-0.73,O=C(NC1CCCc2ccccc21)c1ccc(Cl)nc1 (stereo unspecified)
i,1.62,O=C(O)CCC(=O)NCC1OCCc2ccccc21 (stereo unspecified)
i,0.16,CC(C)(C)NC(=O)NC(=O)COC(=O)CNC(=O)c1cccc(F)c1
i,0.04,Cc1ccc(NS(=O)(=O)c2cc(NC(=O)C(C)Oc3ccccc3)ccc2C)c(C)c1 (stereo unspecified)
i,-1.4,O=C([C@@H]1CC=C[C@@H]2CCN(C3CC3)C(=O)[C@@H]21)N1CCN(c2ccccc2)CC1
i,0.14,O=C(CCCN1C(=O)c2ccccc2C1=O)Nc1ccccn1
i,0.59,COc1ccc(-c2cn3cc(C)ccc3n2)cc1Br
i,1.21,Cc1cc(C)nc(NC(=O)c2c(C(=O)O)noc2C)n1
i,0.16,Cc1nn(C(=O)c2ccccc2)c2c1C(=O)CC(C)(C)C2
i,1.02,COCCn1c(C)cc(C(=O)COC(=O)c2ccc(Cl)c(S(N)(=O)=O)c2)c1C
i,-0.94,Cc1c(NC(=O)/C(C#N)=C/c2ccc(-c3ccccc3Cl)o2)c(=O)n(-c2ccccc2)n1C
i,1.46,O=c1[nH]ncc(N2CCN(C(c3ccccc3)c3ccccc3)CC2)c1Cl
i,-0.34,O=C(CCC1CCCN(C(=O)CCCc2ccccc2)C1)N1CCN(c2ccccn2)CC1 (stereo unspecified)
i,-0.41,Cc1ccc(CN2CCCOCCS2(=O)=O)cc1
i,-1.23,COc1cc(CN(C)Cc2nc3cc(C(F)(F)F)ccc3c(=O)[nH]2)ccc1OC(F)F
i,-0.25,Cc1cc(N)ccc1NC(=O)CN1CCCC1
i,0.69,Cc1nc(Oc2ccc(S(=O)(=O)N3CCOCC3)cc2Cl)c2c3c(sc2n1)CCCC3

Assay outcomes deposited in PubChem by Johns Hopkins Ion Channel Center.

These rows are one share of the data; count on the stated rates, not on these rows.
